Compound activity deposited in PubChem BioAssay by National Center for Advancing Translational Sciences (NCATS).
D2 ag – Beta-Arrestin HTS for Positive Allosteric Modulators of the Human D2 Dopamine Receptor: Agonists; D(2) dopamine receptor (Homo sapiens), P14416; DiscoveRx PathHunter D2 beta-arrestin, luminescence, 90 min; 100% = 57 uM dopamine signal; activation, % (no concentration beside the values); 0.084% of 360,000 active; in the data active = activation above about 40%; inconclusive = about 15% to 40%; inactive = below about 15%; note: compound concentration not given in the record; the text of the record calls up to 30% inactive
Target sequence (P14416 whole entry, looked up): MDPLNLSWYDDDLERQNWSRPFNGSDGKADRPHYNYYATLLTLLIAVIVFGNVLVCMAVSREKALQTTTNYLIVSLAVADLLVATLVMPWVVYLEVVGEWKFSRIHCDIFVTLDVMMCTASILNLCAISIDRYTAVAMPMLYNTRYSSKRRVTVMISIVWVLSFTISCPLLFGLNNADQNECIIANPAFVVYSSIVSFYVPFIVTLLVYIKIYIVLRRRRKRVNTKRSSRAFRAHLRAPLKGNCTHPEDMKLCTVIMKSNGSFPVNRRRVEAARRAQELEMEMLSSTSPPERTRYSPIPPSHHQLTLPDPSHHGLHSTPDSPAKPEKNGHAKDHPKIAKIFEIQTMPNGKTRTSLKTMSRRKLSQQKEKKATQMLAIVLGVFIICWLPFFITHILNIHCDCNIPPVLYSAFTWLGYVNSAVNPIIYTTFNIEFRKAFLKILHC
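DiscoveRx PathHunter D2 beta-arrestin cells (2,100/well) attached overnight, then compound-stimulated 90 min at 37 C in HBSS/10 mM HEPES/0.1% Tween-20 buffer; beta-galactosidase complementation read by luminescence after 1 h at ambient temperature. Dopamine 57 uM final (EC100) as control.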
Six1-Eya2 inh – qHTS Assay for Inhibitors of the Six1/Eya2 Interaction. Homeobox protein SIX1 (Homo sapiens) + Protein phosphatase EYA2 (Homo sapiens), …. AlphaScreen GST-Six1/His-Eya2 binding, biochemical; stronger effect = lower value; control for the full effect not named in the record. activity change, % (concentration not given with the values). 0.56% of 360,000 active; in the data active = activity change below about -65%; inconclusive = about -30% to -65%; inactive = above about -30%; note: % is set by controls: 0 for no effect and ±100 for the full control effect
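Six1/Eya2 binding was read as AlphaScreen signal after compounds were pinned into GST-Six1 plus His-tagged Eya2 (5X stock 250/500 nM) in pH 8.0 Tris/NaCl/TCEP buffer, beads added, then incubated 1 h, 37 C, dark.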
PINK1 expr mod – A Quantitative High throughput Screen to Identify Chemical Modulators of PINK1 Expression. PINK1 immunofluorescence, high-content cytometry, 24 h. Potency, µM (top dose mostly 76.6 µM), for the others: at the top dose activation (PINK1 increase), most hits filed as activators. 0.2% of 410,000 active. AID 624263, 2012; active = well fitted activation curve with a large enough effect; inconclusive = small, poorly fitted or top-dose-only effect; inactive = flat fitted curve, though single readings scatter; cell line not stated here;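 note: potency is the fitted concentration of half-maximal effect; % of control where 0% means no effect; nearly all actives have a fitted effect of over 65% in size; a mitochondrial uncoupler was the plate control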
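Cells are seeded, rested 12 hours, then given compound at five concentrations or DMSO for 24 hours. After fixation, blocking and antibody staining, PINK1 amount and mitochondrial localization are scored; CCCP serves as control.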
CtBP-E1A blk – qHTS Assay for Inhibitors of the CtBP/E1A Interaction; AID 651724, 2012; AlphaScreen GST-E1A/His-CtBP binding, 1536-well; stronger effect = lower value; control for the full effect not named in the record; 0.49% of 340,000 active; activity change, % (no concentration beside the values); in the data active means activity change below about -65%; inconclusive means about -30% to -65%; inactive means above about -30%; note: % is set by controls: 0 for no effect and ±100 for the full control effect; compound concentration not given in the record
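GST-E1A and His-tagged CtBP (125 nM each as 5X stock) were preincubated with pin-transferred compound for 2 h at 37 °C in the dark, then glutathione donor and nickel acceptor beads were added for 1 h before AlphaScreen reading.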
TRPML1 agonist – qHTS for Agonists of the Human Mucolipin Transient Receptor Potential 1 (TRPML1). TRPML1-expressing cells, Ca2+ dye fluorescence, FDSS; host cell line not named in the record; reference of the full effect not given here. activation, % (no concentration beside the values). 0.12% of 410,000 active. AID 624414, 2012; in the data active = activation above about 50%; inconclusive = about 30% to 50%; inactive = below about 30%; note: 0% is about no effect; the text of the record puts the active cut at 80%
Target sequence (Q9GZU1 whole entry, looked up): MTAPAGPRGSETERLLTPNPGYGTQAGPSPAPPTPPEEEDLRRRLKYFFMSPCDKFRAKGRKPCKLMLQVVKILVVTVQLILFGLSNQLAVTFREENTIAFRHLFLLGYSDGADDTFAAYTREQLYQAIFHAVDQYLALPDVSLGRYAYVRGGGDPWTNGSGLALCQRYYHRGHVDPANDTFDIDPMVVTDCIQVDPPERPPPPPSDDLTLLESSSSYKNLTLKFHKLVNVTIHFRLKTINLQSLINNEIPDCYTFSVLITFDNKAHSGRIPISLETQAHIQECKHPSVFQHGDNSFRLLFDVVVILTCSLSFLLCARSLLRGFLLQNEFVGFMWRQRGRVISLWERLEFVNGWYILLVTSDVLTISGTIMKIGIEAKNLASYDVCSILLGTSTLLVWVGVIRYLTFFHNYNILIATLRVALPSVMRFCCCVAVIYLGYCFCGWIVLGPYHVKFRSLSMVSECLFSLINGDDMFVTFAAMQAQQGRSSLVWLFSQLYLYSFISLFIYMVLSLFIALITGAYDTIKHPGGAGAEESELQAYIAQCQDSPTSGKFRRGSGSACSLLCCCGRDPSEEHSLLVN
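Cells: TRPML1-DL, 1X Tet inducer, ~16 h at 37 degrees C/5% CO2. Dye: ABD Ca8 no-wash + quencher, 45-90 min RT. Read: 10 s baseline, compound add, 110 s agonist phase; 54-4 EC80 (4uM final), 110 s antagonist phase.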
D2 PAM – Beta-Arrestin HTS for Positive Allosteric Modulators of the Human D2 Dopamine Receptor: Potentiators; D(2) dopamine receptor (Homo sapiens), P14416; DiscoveRx D2 beta-arrestin cells, luminescence, 90 min; 100% = 57 uM dopamine signal; potentiation, % (concentration not given with the values); 0.23% of 360,000 active; AID 624464, 2012; active = potentiation of 50% or more; inconclusive = 30% to 50%; inactive = 30% or less;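 note: compound concentration not given in the record; tested on top of an EC20 dose of dopamine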
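PathHunter D2 cells, attached overnight at 37 deg C, received compound in DMSO plus dopamine at EC20 (50 nM final) for 90 min at 37 deg C. Beta-arrestin recruitment was read as luminescence after 1 h with detection reagent at ambient temperature.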
Numbers without * were called inactive; & = joins results of further samples; [ ] = another dose, or the depositor's remark.

Start of the listing, in advance, 4 compounds:
What do the screens show for `COc1ccccc1NS(=O)(=O)c1cc(NC(=S)Nc2cc(C)cc(C)c2)ccc1Cl`?
D2 ag: 6.2; Six1-Eya2 inh: -1; PINK1 expr mod: 45µM*; CtBP-E1A blk: 0; TRPML1 agonist: -0.1; D2 PAM: 22

What do the screens show for `COC(=O)c1nn(-c2ccc(C)cc2)ccc1=O`?
D2 ag: -2.5; Six1-Eya2 inh: 2; PINK1 expr mod: -1.9%; TRPML1 agonist: 1.2; D2 PAM: -7

Results for Cc1cccc(C)c1NC(=O)NC1(C(=O)NCCCN2CCOCC2)CCCCC1 ?
D2 ag: -2.7; Six1-Eya2 inh: 7; PINK1 expr mod: -0.7%; CtBP-E1A blk: 4; TRPML1 agonist: -0.2; D2 PAM: -8

Results for CCn1c(SCC(=O)Nc2ccc3c(c2)OCO3)nnc1C1CC1 ?
D2 ag: -4.7; Six1-Eya2 inh: -3; PINK1 expr mod: -2.4%; CtBP-E1A blk: -10; TRPML1 agonist: 1.1; D2 PAM: -8

The whole of this part, from the start:
What do the screens show for `COc1ccccc1NS(=O)(=O)c1cc(NC(=S)Nc2cc(C)cc(C)c2)ccc1Cl`?
D2 ag: 6.2; Six1-Eya2 inh: -1; PINK1 expr mod: 45µM*; CtBP-E1A blk: 0; TRPML1 agonist: -0.1; D2 PAM: 22

What do the screens show for `COC(=O)c1nn(-c2ccc(C)cc2)ccc1=O`?
D2 ag: -2.5; Six1-Eya2 inh: 2; PINK1 expr mod: -1.9%; TRPML1 agonist: 1.2; D2 PAM: -7

Results for Cc1cccc(C)c1NC(=O)NC1(C(=O)NCCCN2CCOCC2)CCCCC1 ?
D2 ag: -2.7; Six1-Eya2 inh: 7; PINK1 expr mod: -0.7%; CtBP-E1A blk: 4; TRPML1 agonist: -0.2; D2 PAM: -8

Results for CCn1c(SCC(=O)Nc2ccc3c(c2)OCO3)nnc1C1CC1 ?
D2 ag: -4.7; Six1-Eya2 inh: -3; PINK1 expr mod: -2.4%; CtBP-E1A blk: -10; TRPML1 agonist: 1.1; D2 PAM: -8

How did CCCCC(C(=O)O)C(C)CC(=O)Nc1ccn(-c2ccccc2)n1 (stereo unspecified) do in these assays?
D2 ag: 0.8; Six1-Eya2 inh: 5; PINK1 expr mod: -0.2%; CtBP-E1A blk: 7; TRPML1 agonist: -0.5; D2 PAM: -3

Results for CCc1cc(C(=O)Nc2cc(S(=O)(=O)N(CC)CC)ccc2N2CCOCC2)sc1C ?
D2 ag: 1.2; Six1-Eya2 inh: -1; PINK1 expr mod: -0.9%; CtBP-E1A blk: -6; TRPML1 agonist: 1.0; D2 PAM: -9

How did C#CCOCCOCCOCCNc1nc(N2CCN(C(=O)Cn3cc(CC(C)O)nn3)CC2)nc(N2CCN(C(=O)[C@H](C)n3cc(CCC(=O)O)nn3)CC2)n1 (stereo partly specified) do in these assays?
D2 ag: -1.5; Six1-Eya2 inh: 5; PINK1 expr mod: -1.7%; CtBP-E1A blk: 6; TRPML1 agonist: 2.8; D2 PAM: 2

How did c1cncc(-c2nc(-c3ccco3)cs2)c1 do in these assays?
D2 ag: -1.6; Six1-Eya2 inh: -3; PINK1 expr mod: -1.4%; CtBP-E1A blk: -1; TRPML1 agonist: -0.1; D2 PAM: -12

Results for O=C(O)c1cnc(-c2ccccc2)nc1Sc1ccccc1Cl ?
D2 ag: -5.0; Six1-Eya2 inh: -2; PINK1 expr mod: -2.5%; CtBP-E1A blk: 2; TRPML1 agonist: 0.6; D2 PAM: 0

What do the screens show for `Cc1ccc(S(=O)(=O)N2CCC(C(=O)OC(C)C(=O)NC(N)=O)CC2)cc1C` (stereo unspecified)?
D2 ag: -1.2; Six1-Eya2 inh: 5; PINK1 expr mod: 0.3%; TRPML1 agonist: -0.8; D2 PAM: -9

What do the screens show for `Cc1ccc(-c2csc3ncnc(N4CCN(C(=O)c5ccccc5)CC4)c23)cc1`?
D2 ag: -3.4; Six1-Eya2 inh: -7; PINK1 expr mod: -0.6%; CtBP-E1A blk: -3; TRPML1 agonist: 0.0; D2 PAM: -5

Results for CCOC(=O)c1cccc(P(=O)(C(C)(C)C)C(C)(C)C)c1 ?
D2 ag: -0.7; Six1-Eya2 inh: 7; PINK1 expr mod: 0.5%; CtBP-E1A blk: 14; TRPML1 agonist: -0.3; D2 PAM: -16

How did O=C(N/N=C/c1ccco1)c1cccc(N2Cc3ccccc3C2)c1 do in these assays?
D2 ag: 2.3; Six1-Eya2 inh: -22; PINK1 expr mod: 1.9%; CtBP-E1A blk: -4; TRPML1 agonist: -0.3; D2 PAM: -2

Results for CCc1cc(=O)oc2c(CN3CCCC3)c(O)c(Cl)cc12 ?
D2 ag: -1.1; Six1-Eya2 inh: 6; PINK1 expr mod: 4.7%[38.3 µM]; CtBP-E1A blk: 0; TRPML1 agonist: -0.1; D2 PAM: -10

How did Cc1ccc(S(=O)(=O)NC(C)C(=O)N2CCOCCOCCOCCOCC2)cc1 (stereo unspecified) do in these assays?
D2 ag: -0.8; Six1-Eya2 inh: 2; PINK1 expr mod: -0.1%; CtBP-E1A blk: -13; TRPML1 agonist: 0.0; D2 PAM: -6

What do the screens show for `COc1cccc(N2CCN(C(=O)C3CCCN(c4ncnc5c4nc4n5CCCCC4)C3)CC2)c1` (stereo unspecified)?
D2 ag: 4.7; Six1-Eya2 inh: -18; PINK1 expr mod: -0.7%; CtBP-E1A blk: -22; TRPML1 agonist: 2.3; D2 PAM: 20

How did CCc1ccc2c(c1)C(c1ccc([N+](=O)[O-])cc1)=NNC(c1ccccc1)=N2 do in these assays?
D2 ag: -0.9; Six1-Eya2 inh: -15; PINK1 expr mod: 8.3%; CtBP-E1A blk: -7; TRPML1 agonist: -0.3; D2 PAM: -21

What do the screens show for `COc1ccc(N2C(=O)CC(N3CCN(S(=O)(=O)c4c(F)cccc4F)CC3)C2=O)cc1OC` (stereo unspecified)?
D2 ag: -1.8; Six1-Eya2 inh: 1; PINK1 expr mod: 1.8%; CtBP-E1A blk: -2; TRPML1 agonist: 0.1; D2 PAM: -3

How did CCN(CCCNC(=O)CN1C(=O)COc2ccccc21)c1ccccc1 do in these assays?
D2 ag: 0.9; Six1-Eya2 inh: -6; PINK1 expr mod: -4.9%[38.3 µM]; CtBP-E1A blk: 3; TRPML1 agonist: 0.5; D2 PAM: -16

Results for CC(=O)c1cc(-c2ccccc2)n(CC(=O)N2CCCCC2)c1C ?
D2 ag: -3.1; Six1-Eya2 inh: -1; PINK1 expr mod: 2.5%[38.3 µM]; CtBP-E1A blk: 4; TRPML1 agonist: 0.5; D2 PAM: -4

How did COc1ccc(CN2CCN(S(=O)(=O)c3ccccc3)CC2)c(OC)c1 do in these assays?
D2 ag: -3.2; Six1-Eya2 inh: -8; PINK1 expr mod: 15%[38.3 µM]; CtBP-E1A blk: -4; TRPML1 agonist: -0.7&2.0; D2 PAM: -15

What do the screens show for `CCN(CC)CCCNC(=O)c1ccc(CS(=O)(=O)c2ccccc2OC)o1`?
D2 ag: -0.4; Six1-Eya2 inh: -2; PINK1 expr mod: -0.2%; CtBP-E1A blk: -1; TRPML1 agonist: -0.1; D2 PAM: -14

How did CCn1c(=S)sc2c(=O)n(CC(=O)Nc3ccc(OC)c(Cl)c3)c(C)nc21 do in these assays?
D2 ag: -1.9; Six1-Eya2 inh: 2; PINK1 expr mod: 6.2%; CtBP-E1A blk: 5; TRPML1 agonist: -1.1; D2 PAM: -1

Results for COC(=O)C(=Cc1ccc(OCc2ccc([N+](=O)[O-])cc2)c(OC)c1)C(=O)OC ?
D2 ag: -1.8; Six1-Eya2 inh: 10; PINK1 expr mod: -3.3%; CtBP-E1A blk: -6; TRPML1 agonist: 0.2; D2 PAM: -5

How did CC1CN(C(=O)c2cc3cc([N+](=O)[O-])ccc3oc2=O)CC(C)O1 (stereo unspecified) do in these assays?
D2 ag: -2.2; Six1-Eya2 inh: 10; PINK1 expr mod: 0.4%; CtBP-E1A blk: 2; TRPML1 agonist: 0.7; D2 PAM: -2

What do the screens show for `CCOC(=O)c1c(NC(=O)Nc2ccc(F)cc2)sc2c1CCN(C)C2`?
D2 ag: -1.0; Six1-Eya2 inh: 2; PINK1 expr mod: 3.7%; CtBP-E1A blk: 0; TRPML1 agonist: 2.0; D2 PAM: -6

Results for Cc1ccc(NC(=O)CCc2ccccc2)cc1C ?
D2 ag: -2.0; Six1-Eya2 inh: 10; PINK1 expr mod: 1.4%; CtBP-E1A blk: -1; TRPML1 agonist: -1.0; D2 PAM: -22

What do the screens show for `Cc1ccccc1NC(=O)COC(=O)CNC(=O)c1sc2ccccc2c1Cl`?
D2 ag: -1.9; Six1-Eya2 inh: 7; PINK1 expr mod: inconclusive; CtBP-E1A blk: 10; TRPML1 agonist: 0.8; D2 PAM: 1

What do the screens show for `CNS(=O)(=O)c1cc(N(C)S(=O)(=O)c2ccc(C)cc2)c(C)cc1C`?
D2 ag: -1.5; Six1-Eya2 inh: 3; PINK1 expr mod: 2.7%; CtBP-E1A blk: 2; TRPML1 agonist: 0.2; D2 PAM: -1

What do the screens show for `Cn1c(N)c(C(=O)COC(=O)CCOc2ccc(C(C)(C)C)cc2)c(=O)n(C)c1=O`?
D2 ag: -4.6; Six1-Eya2 inh: -6; PINK1 expr mod: 2.4%; CtBP-E1A blk: -1; TRPML1 agonist: 0.6; D2 PAM: -4

Results for CCCCNC(=O)CNC(=S)N(CCCN1CCOCC1)Cc1cccs1 ?
D2 ag: 0.1; Six1-Eya2 inh: -4; PINK1 expr mod: 0.8%; CtBP-E1A blk: 2; TRPML1 agonist: -0.2; D2 PAM: -12

What do the screens show for `Cn1ccnc1SCc1cc(=O)[nH]c2ccccc12`?
D2 ag: -2.1; Six1-Eya2 inh: 8; CtBP-E1A blk: 7; TRPML1 agonist: 1.0; D2 PAM: -5

What do the screens show for `Cn1c(=O)c2c(nc(N3CCOCC3)n2C/C=C/c2ccccc2)n(C)c1=O`?
D2 ag: -2.2; Six1-Eya2 inh: -20; PINK1 expr mod: -0.5%; CtBP-E1A blk: 4; TRPML1 agonist: 1.4; D2 PAM: 3

What do the screens show for `C/C(=N\NC(=O)CNc1ccccc1)c1ccccc1`?
D2 ag: -2.0; Six1-Eya2 inh: 0; PINK1 expr mod: -0.2%; CtBP-E1A blk: -5; TRPML1 agonist: 0.5; D2 PAM: -18
